Lassa entry inh: qHTS for Inhibitors of binding or entry into cells for Lassa Virus; Potency, µM (titrated, usually from 37.9 µM), for the others: at the top dose activity change, negative = inhibition, actives largely listed as inhibitors; actives 1.2% (n = 300,000); Lassa virus pseudotype entry inhibition, cell reporter; control for the full effect not named in the record; AID 540256, 2011; active means well fitted inhibition curve with a large enough effect; inconclusive means small, poorly fitted or top-dose-only effect, or effect the other way; inactive means flat fitted curve, though single readings scatter; tested in HEK293 cells; further: on the % scale 0 is the no-effect control and ±100 the full control effect; nearly all actives have a fitted effect of over 50% in size; luciferase read-out
MARV entry inh: qHTS for inhibitors of binding or entry into cells for Marburg Virus. Potency, µM (titrated, usually from 37.8 µM), for the others: top-dose activity change, negative = inhibition, most hits filed as inhibitors. actives 1.8% (n = 300,000). AID 540276, 2011. Marburg virus pseudotyped entry inhibition, cell reporter; control for the full effect not named in the record; about a third of the inactives were read at about 46 µM; active = well fitted inhibition curve with a large enough effect; inconclusive = small, poorly fitted or top-dose-only effect, or effect the other way; inactive = flat fitted curve, though single readings scatter; tested in HEK293 cells; about a fifth of its hits are not listed in these tables; further: on the % scale 0 is the no-effect control and ±100 the full control effect; luciferase read-out
Cruzain Triton: qHTS Assay for Promiscuous and Specific Inhibitors of Cruzain (with detergent); Cruzipain (Trypanosoma cruzi), P25779; purified cruzain, Z-FR-AMC fluorescence, 0.01% Triton; Potency, µM, inactives show max response, negative = inhibition, usual class: inhibitors; actives 0.43% (n = 200,000); AID 1478, 2009; active means well fitted curve in the direction sought with a large enough effect; inconclusive means small, poorly fitted or top-dose-only effect, or another doubt; inactive means no such curve, though single readings can be large; an effect the other way counts as inactive or inconclusive;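 further: plate controls were neutral wells for no effect and buffer without enzyme for full effect; nearly all actives have a fitted effect of over 40% in size; top concentration of the series not given in the record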
Target sequence (P25779 123-467 limits assumed): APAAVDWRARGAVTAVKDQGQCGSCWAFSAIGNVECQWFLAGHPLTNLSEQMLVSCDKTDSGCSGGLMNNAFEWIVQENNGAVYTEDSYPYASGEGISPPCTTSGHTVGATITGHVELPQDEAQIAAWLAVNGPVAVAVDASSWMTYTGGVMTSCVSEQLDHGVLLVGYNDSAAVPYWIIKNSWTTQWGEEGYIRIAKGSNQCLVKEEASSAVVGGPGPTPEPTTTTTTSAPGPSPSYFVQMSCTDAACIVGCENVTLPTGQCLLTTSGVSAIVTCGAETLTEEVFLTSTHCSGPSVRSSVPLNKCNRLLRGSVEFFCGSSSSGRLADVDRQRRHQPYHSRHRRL
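Z-FR-AMC hydrolysis (2 uM substrate) by cruzain (1.5 nM) monitored kinetically at ex 360/em 450 nm after 15 min room-temperature compound exposure; 0.01% Triton X-100, pH 5.5, 5 mM DTT.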
SARS PLP yeast: qHTS of Yeast-based Assay for SARS-CoV PLP; actives 0.19% (n = 330,000); S. cerevisiae expressing SARS-CoV PLpro, growth rescue; control for the full effect not named in the record; AID 485353, 2010; Potency, µM (titrated, usually from 32.9 µM), without a hit: at the top dose activity, positive = growth rescue; further: 0% is about no effect; nearly all actives have a fitted effect of over 55% in size; growth read by luminescence after 48 h
Cruzain inh noDet: qHTS Assay for Promiscuous and Specific Inhibitors of Cruzain (without detergent). Potency, µM, for the others: max response, negative = inhibition, usual class: inhibitors. purified cruzain, Z-FR-AMC fluorescence, no detergent. actives 2.3% (n = 200,000); active means well fitted curve in the direction sought with a large enough effect; inconclusive means small, poorly fitted or top-dose-only effect, or another doubt; inactive means no such curve, though single readings can be large; an effect the other way counts as inactive or inconclusive;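 further: plate controls were enzyme without inhibitor for no effect and buffer without enzyme for full effect; nearly all actives have a fitted effect of over 40% in size; top concentration of the series not given in the record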
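Purified cruzain at 1.5 nM, pre-incubated 15 min with compound at room temperature in 100 mM sodium acetate pH 5.5, 5 mM DTT, 0.00005% Triton X-100. Reaction started with 2 uM Z-FR-AMC; AMC fluorescence increase over 60 s gives rate.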
2A StopGo: High Throughput Screening for Foot and Mouth Disease Virus Antivirals | human cells with a luciferase reporter of 2A StopGo recoding; control for the full effect not named in the record | actives 1.2% (n = 410,000) | Potency, µM (titrated, usually from 57.9 µM), for the others: at the top dose signal change, negative = less light; active = well fitted falling curve with a large enough effect; inconclusive = small, poorly fitted or top-dose-only effect; inactive = no such curve, though single readings can be large or run the other way; tested in HEK293T cells; further: on the % scale 0 is the no-effect control and ±100 the full control effect; nearly all actives have a fitted effect of over 45% in size; luciferase light after 4 h
NS1 inh: qHTS Assay for Inhibitors of Influenza NS1 Protein Function | S. cerevisiae slowed by influenza A NS1, growth recovery by OD600 | Potency, µM (titrated, usually from 46.1 µM), for the others: top-dose activity, positive = more growth | actives 0.4% (n = 270,000) | AID 2326, 2010; further: actives are rising curves; nearly all actives have a fitted effect of over 50% in size
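Read-out: OD600 growth recovery of NS1-expressing budding yeast. Cells grown overnight at 30C in -URA glucose medium, washed, resuspended and diluted 1:100 in 2% galactose assay medium, pH 6.0. Same strain lacking NS1 served as positive control.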
RE007 growth inh: qHTS Assay for Inhibitors of the HIV-1 protein Vpr. S. pombe RE007 Vpr strain, BacTiter-Glo ATP luminescence, 24 h; control for the full effect not named in the record. Potency, µM (highest dose often 92.2 µM), without a hit: top-dose activity change, negative = less growth. actives 0.21% (n = 360,000); active = well fitted falling curve with a large enough effect; inconclusive = small, poorly fitted or top-dose-only effect; inactive = no such curve, though single readings can be large or run the other way;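 further: on the % scale 0 is the no-effect control and ±100 the full control effect; nearly all actives have a fitted effect of over 50% in size; the assay follows cell death caused by Vpr and the record does not say whether a fall means rescue or toxicity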
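Fission yeast strain RE007, carrying one chromosomally integrated HIV-1 vpr copy, was seeded at OD 0.01 in PMG+AL medium with 23 nL pinned compound. After 24 h at 30 °C and 99% humidity, viability was read by BacTiter-Glo luminescence.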
The depositor's hits bear a star; ? = inconclusive; . = not tested or not shown; [ ] = dose if it differs, or a comment. Unless noted, the call rests on the fitted dose curve; in most records, active means well fitted rising curve with a large enough effect; inconclusive means small, poorly fitted or top-dose-only effect; inactive means no such curve, though single readings can be large or run the other way. Potency means the concentration at half of the fitted maximal effect.

Molecule	Lassa entry inh	MARV entry inh	Cruzain Triton	SARS PLP yeast	Cruzain inh noDet	2A StopGo	NS1 inh	RE007 growth inh
CC(C)N(CC(N)=O)C(=O)c1sc2cc(F)ccc2c1Cl	-4.3%	?	.	-1.2%	.	-2.8%	.	?
COc1ccc(NC(=O)c2sccc2SCc2cccc(C(F)(F)F)c2)cc1	-24.6%[14.3 µM]	-6.6%	-7.1%	-2.7%	0.7%	-6.8%	4.6%	6.3%
Cc1[nH]n(-c2ccc(Cl)cc2)c(=O)c1/C=N/c1nnc(-c2ccccc2)s1	7.4%	6.3%	-4.6%	-47.9%	18.4%	-20.4%	0.6%	?
Cc1ccc(Cn2cccc(C(=O)Nc3cc(C)on3)c2=O)cc1	6.9%[46.1 µM]	.	-1.2%	.	6.0%	-1.2%	.	.
O=C(CCc1ccccc1)Nc1ccccc1OC(=O)c1ccccc1	?	9.6%[46.1 µM]	.	.	.	26.4%	.	-10.0%
Cc1ccc(S(=O)(=O)C2(C(=O)Nc3ccc(Br)cc3)CC2)cc1	-18.8%	-25.6%[46.1 µM]	.	-1.4%	.	20.3%	.	0.0%
COC(=O)c1ccc(NC(=O)CSc2nccn2CCc2ccccc2)cc1	2.3%	13.2%	-3.7%	4.6%	4.5%	24.0%	-5.3%	-11.5%
COc1cccc(Nc2nnc(SCn3nnc4ccccc4c3=O)s2)c1	0.4%	-3.4%	-2.9%	-10.4%	?	.	-2.4%	-2.1%
CCSC1=NC2(CCN(C(=O)NC3CCCCC3)CC2)N=C1c1ccc(C)cc1	?	.	-0.2%	.	-0.6%	-12.2%	.	.
Cc1ccc2nc(SC(C)C(=O)Nc3cccc([N+](=O)[O-])c3)[nH]c2c1 (stereo unspecified)	-10.8%	?	?	-41.6%	-14.0%	?	11.4%	-25.7%
CCCCc1ccc(S(=O)(=O)Nc2ccc(C)c(NS(C)(=O)=O)c2)cc1	-3.8%	11.7%	.	1.6%	.	17.2%	-18.1%	10.1%
COc1cccc2cc(C(=O)NCCc3c(C)[nH]c4ccc(Br)cc34)c(=O)oc12	?	-4.9%[46.1 µM]	3.6%	.	4.1%	-22.1%	.	.
O=C(Cc1ccc(S(=O)(=O)N2CCCC2)s1)N1CCOCC1	10.2%	?	4.4%	-2.6%	6.1%	6.9%	-2.1%	6.7%
O=C(Nc1ccccc1F)c1nc(SCc2ccccc2F)ncc1Cl	11.3%[46.1 µM]	5.4%[46.1 µM]	-0.2%	.	-1.4%	-18.6%	.	.
Cn1c(SCC(=O)N2CCOCC2)nnc1-c1ccccc1	?	1.7%	2.3%	3.8%	-0.2%	.	?	-10.8%
Cc1nn(CC(=O)Nc2cccc(S(N)(=O)=O)c2)c(C)c1[N+](=O)[O-]	?	?	-6.4%	12.0%	7.0%	-13.0%	?	-14.3%
CC12CCC(C/C1=N\OC(=O)c1ccc(F)cc1)C2(C)C (stereo unspecified)	1.0%	0.5%	-4.7%	-79.8%	-0.3%	-2.5%	-31.7%	-18.8%
O=C(NCC1COc2ccccc2O1)c1ccc(NC(=O)C(c2ccccc2)c2ccccc2)cc1 (stereo unspecified)	1.5%	2.8%	-0.7%	6.6%	?	-25.7%	16.1%	15.7%
CCN(CC)CCOC(=O)c1ccc2c(c1)OCCO2	-14.6%	20.5%	2.6%	1.7%	1.5%	.	1.8%	5.2%
COc1ccccc1CNC(=O)C1CCCN(S(=O)(=O)c2ccc3c(c2)CCCN3C(C)=O)C1 (stereo unspecified)	?	.	-1.9%	.	24.3%	?	.	.
O=C(CS(=O)(=O)c1ccccc1)NC1CCCCC1	.	.	.	-0.9%	.	14.1%	2.7%	-13.1%
CCC(=O)Nc1ccccc1C(=O)N1CCOCC1	5.9%	-9.6%	0.3%	2.6%	-0.6%	-8.0%	2.7%	22.8%
O=C1[C@@H]2Cc3c([nH]c4ccccc34)C(c3ccccc3)N2C(=O)CN1C1CCN(Cc2ccccc2)CC1 (stereo partly specified)	?	?	.	-1.9%	.	-1.8%	0.9%	5.0%
CCC(=O)c1ccc(OCC(=O)NCCC2=CCCCC2)c(OC)c1	.	.	.	-2.8%	.	-15.8%	-33.8%	-8.3%
CCOc1cccc(C2C(C(=O)c3ccco3)=C(O)C(=O)N2Cc2ccncc2)c1 (stereo unspecified)	?	-9.0%	-1.2%	1.4%	-17.5%	77.8%[activator]	-12.8%	9.8%
O=C(CSc1ccccc1)Nc1nnc(/C=C/c2ccccc2)s1	-13.6%	?	-1.5%	0.2%	?	-8.6%	13.4%	18.5%
O=C(Nc1c2c(nn1-c1ccc(Cl)cc1)CS(=O)(=O)C2)c1ccccc1F	24.0%[46.1 µM]	.	1.6%	.	-16.4%	0.0%	.	.
CN(C(=O)CSc1nc(O)cc(=O)n1-c1ccccc1F)c1ccccc1	.	.	.	-1.3%	.	-25.3%	19.6%	5.2%
CCN(CC(=O)NC(=O)NCc1ccco1)Cc1nc2ccccc2c(=O)[nH]1	11.7%	?	-2.4%	0.6%	4.4%	-2.2%	14.7%	0.2%
O=C(CNC(=O)c1ccccc1Br)N/N=C/c1ccccc1O	?	?	.	3.8%	.	6.4%	5.9%	-13.6%
O=C(NCc1ccc(F)cc1)C1CCCN(S(=O)(=O)c2ccc(-n3cnnn3)cc2)C1 (stereo unspecified)	-1.7%[46.1 µM]	1.3%[46.1 µM]	.	-1.7%	.	1.5%	-3.5%	12.3%
Nc1nc(F)cc(N2CCCCCC2)n1	.	13.5%[46.1 µM]	.	6.0%	.	-1.6%	.	-25.2%
CCOc1ccc(-n2nc3ccc(NC(=O)CC)cc3n2)cc1	?	24.0%	.	-3.6%	.	44.2%[activator]	-1.6%	-9.6%
CCn1cc(C(=O)NCCc2ccc(OC)c(OC)c2)c(=O)c2cc(S(=O)(=O)N3CCC(C)CC3)ccc21	-24.0%[46.1 µM]	?	-5.5%	.	?	-26.0%	.	.
CC(C)(C)c1cc(C(=O)N/N=C/c2ccc([N+](=O)[O-])s2)n[nH]1	?	?	.	-0.9%	.	?	-0.6%	-10.2%
COc1ccc(/C=C/C(=O)C2CC2)cc1COc1cccc(C)c1C	7.08µM*	?	.	-1.5%	.	?	3.8%	-1.4%
Cc1cccc(NC(=O)c2ccc3c(c2)CCN3S(C)(=O)=O)c1C	.	.	.	4.1%	.	17.0%	11.3%	-4.8%
Cc1ccccc1-c1cc(C(=O)Nc2nc3c(s2)CCCC3)c2ccccc2n1	-3.1%	-21.8%	-5.3%	-11.1%	?	-12.4%	27.2%	-3.3%
CCN(CC)P(=O)(C(NC(=O)OC)C(F)(F)C(F)(F)C(F)(F)C(F)F)N(CC)CC (stereo unspecified)	-22.7%	?	3.9%	7.7%	?	.	3.5%	8.3%
CCOc1ccc(NC(=O)Cc2nnc(SCC(=O)N3CCOCC3)n2C)cc1	-1.5%	-0.1%	.	-4.3%	.	-5.4%	2.0%	-7.3%
COc1ccc(C(=O)NCCNC(=O)c2ccccn2)cc1	4.2%[46.1 µM]	15.8%[46.1 µM]	.	1.6%	.	12.6%	-0.3%	11.8%
O=C(CCc1nc(-c2ccccc2)no1)Nc1cc(C(F)(F)F)ccc1Cl	-22.5%	-18.7%	-2.8%	1.6%	-12.1%	-27.0%	-1.5%	6.7%
CCOc1ccc(S(=O)(=O)Nc2cc(S(=O)(=O)N(CC)CC)ccc2N2CCCC2)cc1	-23.1%	?	-5.6%	10.2%	12.8%	9.8%	5.2%	0.7%
CN(C)CCN(C(=O)C1=COCCO1)c1nc2ccc(F)cc2s1	19.7%	7.7%	.	.	.	20.9%	.	-15.1%
O=C(c1ccc(CS(=O)(=O)c2ccccc2)o1)N1CCOCC1	.	.	4.7%	4.2%	2.0%	-20.9%	-11.6%	17.8%
COc1ccc(-c2noc(CSc3nc(N)cc(=O)[nH]3)n2)cc1OC	-17.5%[46.1 µM]	.	-1.1%	.	-16.8%	?	.	.
COC(=O)c1[nH]c(=O)c2ccccc2c1O	9.2%	?	-8.2%	-1.1%	-16.7%	-19.1%	-7.8%	-4.2%
Cc1ccc(/C=N/N2C(=O)C3C(C2=O)C2C=CC3C23CC3)o1 (stereo unspecified)	16.0%	?	1.1%	-14.3%	1.0%	.	-4.8%	-5.5%
COc1ccc(-c2ocnc2C(=O)Nc2ccccc2N2CCCCC2)cc1	?	?	-6.3%	-8.7%	?	-14.5%	-8.5%	11.6%
COc1ccc(Cl)cc1NC(=S)N1CCN(c2ncccn2)CC1	-3.4%[46.1 µM]	5.6%[46.1 µM]	.	-1.1%	.	7.1%	.	-12.5%
Cc1onc(-c2ccccc2Cl)c1C(=O)N1CCN=C1SCc1cccnc1	-18.8%	-5.7%	10.2%	-2.7%	3.7%	-16.2%	-4.2%	-1.2%
COc1ccc(/C=N\NC(=O)COc2ccc(C(C)(C)C)cc2)cc1Cn1nc(C)cc1C	2.24µM*	?	5.2%	1.5%	25.1µM*	?	9.0%	2.3%
COc1nc(-c2ccc(C)cc2)ccc1-c1noc(-c2ccccc2Br)n1	?	3.5%[46.1 µM]	-2.1%	.	-15.8%	-1.0%	.	.
CCc1nc2sc3c(=O)[nH]cnc3c2c2c1CSC(C)(C)C2	.	.	.	-0.2%	.	-3.3%	1.0%	0.3%
O=C(Nc1ccc2c(c1)CCCN2C(=O)c1cccs1)c1c(F)cccc1Cl	.	.	.	1.3%	.	?	-16.1%	5.2%
CC(C)Nc1nc2nonc2nc1Nc1ccccc1	-10.7%	?	.	-1.7%	.	?	-5.5%	6.2%
Cc1ccc(O)c(C(CC(=O)NC(C)C)c2ccccc2)c1 (stereo unspecified)	.	.	.	0.3%	.	-15.6%	-1.6%	-6.1%
CO/N=C/C1C(=O)NN=C1c1ccccc1 (stereo unspecified)	-8.1%	5.3%[46.1 µM]	.	-3.5%	.	-3.3%	.	2.7%
